# PV pol inh = inhibitors of poliovirus RNA polymerase binding and polymerization | poliovirus polymerase elongation, fluorescence polarization; hits give low values | % elongation, % (compound at 16.7 µg/mL) | P03300 | actives 0.66% (n = 150,000); in the data active = % elongation below about 90%; also: some results filed as inactive read as strong as hits
# Target sequence (P03300 1749-2209 limits assumed): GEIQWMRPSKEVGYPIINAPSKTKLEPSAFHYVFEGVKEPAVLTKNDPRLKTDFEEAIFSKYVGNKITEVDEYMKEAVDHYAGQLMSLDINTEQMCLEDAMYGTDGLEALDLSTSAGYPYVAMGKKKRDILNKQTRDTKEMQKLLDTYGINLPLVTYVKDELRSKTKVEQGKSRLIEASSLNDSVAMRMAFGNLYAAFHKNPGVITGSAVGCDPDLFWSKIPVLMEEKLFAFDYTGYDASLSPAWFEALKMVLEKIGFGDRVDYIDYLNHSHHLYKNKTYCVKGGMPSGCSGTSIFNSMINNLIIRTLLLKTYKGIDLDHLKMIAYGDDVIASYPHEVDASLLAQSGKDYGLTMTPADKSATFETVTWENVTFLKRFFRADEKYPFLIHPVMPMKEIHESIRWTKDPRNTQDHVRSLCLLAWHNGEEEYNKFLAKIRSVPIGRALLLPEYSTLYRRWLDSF
# PV pol inh intensity = also measured in PV pol inh; calls as there; % elongation; measured here: total intensity read-out; formula for this scale not given here;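 total fluorescence in place of polarization; lower means less elongation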
# * marks the source's active call; other numbers are inactive results. A portion of the library; the hit share may differ from the screen's.
no.	molecule	PV pol inh	PV pol inh intensity
1	CCOc1ccc(-c2cn3c(n2)sc2cc(C(=O)N4CCCC(C)C4)ccc23)cc1 (configuration not stated)	104.0	108.0
2	COCCNC(=O)Cn1ncc2c(C)n(Cc3ccc(C)cc3)c(C)c2c1=O	105.0	105.0
3	O=C(Nc1ccccc1C(F)(F)F)N1CCN(c2ccc3nnc(-c4ccc(F)cc4)n3n2)CC1	101.0	107.0
4	Cc1csc2nc(COC(=O)c3cccc(NC(=O)c4cccc(Cl)c4)c3)cc(=O)n12	101.0	105.0
5	COc1ccccc1CNC(=O)CCC1N=C2c3ccccc3N=C(SCC(=O)NCCc3ccc(OC)c(OC)c3)N2C1=O (configuration not stated)	101.0	104.0
6	CCCN1CCN(CCNC(=O)Nc2cc(OC)cc(OC)c2)CC1	109.0	113.0
7	CCOc1ccccc1OCCCn1c(-c2ccc(Cl)cc2)nc2ccccc2c1=O	100.0	105.0
8	Cc1c(C(=O)NCCN(C)C)sc2nc3n(c(=O)c12)CCC3	103.0	109.0
9	CCc1ccccc1NC(=O)C1CCCN(S(=O)(=O)c2cccc3nsnc23)C1 (configuration not stated)	106.0	116.0
10	Cc1ccc(Nc2c(-c3c[nH]c4ccccc34)nc3ccccn23)cc1	110.0	106.0
11	COc1ccc(Cl)cc1S(=O)(=O)NCc1ccc2c(c1)CCN2C(=O)c1cccc(C)c1	123.0	121.0
12	CCOC(=O)c1ccc(NC(=O)CC2Nc3ccccc3NC2=O)cc1 (configuration not stated)	112.0	112.0
13	COc1cccc(NC(=O)C2CCCN(c3ncnc4onc(-c5ccc(F)cc5)c34)C2)c1 (configuration not stated)	109.0	107.0
14	COc1ccc(CN2CCCN(CC(=O)Nc3ccc4c(c3)OCCO4)S2(=O)=O)cc1	111.0	116.0
15	COc1cc2nc(NCc3ccc(C)cc3)n3nc(-c4ccccc4)nc3c2cc1OC	103.0	105.0
16	COc1ccc(CN(Cc2ccco2)c2cnc(S(C)(=O)=O)nc2C(=O)Nc2ccc(F)cc2)cc1	109.0	111.0
17	CCOC(=O)c1ccc(NC(=O)CC2C(=O)N(c3cccc(C)c3)C(=O)N2CCOC)cc1 (configuration not stated)	103.0	105.0
18	COc1ccc(CNC(=O)CN(C)c2nn3c(=O)cc(C)nc3s2)cc1	106.0	111.0
19	COc1cccc(CNC(=O)C(NS(=O)(=O)c2ccc3c(c2)oc(=O)n3C)C(C)C)c1 (configuration not stated)	108.0	107.0
20	CCc1cccc(CC)c1NC(=O)c1c(C)oc2ccc(O)c(CN3CCOCC3)c12	106.0	101.0
21	CCC(Cn1nnc2ccccc2c1=O)NC(=O)Nc1ccc(C)cc1 (configuration not stated)	101.0	105.0
22	CC(Sc1nccn1C)C(=O)Nc1ccccc1C#N (configuration not stated)	106.0	110.0
23	CCc1cccc(OCC(=O)Nc2ccc(S(=O)(=O)Nc3ncccn3)cc2)c1	104.0	107.0
24	COc1ccc(OC)c(CNC(=O)c2ccc(N3Cc4ccccc4Oc4ncccc43)s2)c1	114.0	118.0
25	CCc1nc2cccnc2n1-c1ccc(CC(=O)Nc2ccccc2Cl)cc1	103.0	107.0
26	CC(C)CC(=O)OCc1cc(=O)n2nc(C3CCCCC3)sc2n1	103.0	109.0
27	CCCc1ccc(-c2ccc(C(=O)Oc3ccc(Br)cc3)cc2)nc1	103.0	106.0
28	CCN1CCN(C(c2ccc(OC)cc2)c2c(O)cc(C)n(Cc3ccco3)c2=O)CC1 (configuration not stated)	105.0	108.0
29	CCCNC(=O)CCCN1C(=O)CCn2nc(-c3cccn3C)cc21	107.0	110.0
30	Fc1ccccc1N1CCN(c2nnc(C(F)(F)F)c3nnn(Cc4ccccc4)c23)CC1	102.0	103.0
31	Cc1cccc(N2CCN(C(=O)C3CCC(CNS(=O)(=O)c4ccc(Br)s4)CC3)CC2)c1C (configuration not stated)	108.0	108.0
32	CC(=O)N1CCC(N(Cc2ccco2)C(=O)Nc2ccc(Br)cc2F)CC1	111.0	106.0
33	Cc1ccccc1NC(=O)c1c(C)oc2ccc(O)c(CN3CCN(C)CC3)c12	100.0	103.0
34	O=C(CSc1c2c(nc3ccccc13)CCC2)Nc1ccc(F)cc1F	96.0	100.0
35	COc1ccc(OC)c(S(=O)(=O)NCc2ccc3c(c2)CCN3C(=O)c2cccc(C)c2)c1	110.0	114.0
36	COc1ccc(-c2cc(OC(=O)c3cccc(Cl)c3)c3c(C)oc(C)c3c(=O)c2)cc1	114.0	120.0
37	COc1ccc(NC(=O)CSc2nccn2Cc2ccco2)cc1OC	103.0	108.0
38	Brc1ccc(-c2cc3c(N4CCN(c5ccccc5)CC4)nccn3n2)cc1	103.0	100.0
39	COc1ccc2c(c1)c1c(c(=O)n(Cc3ccccc3)c(=O)n1CC(=O)Nc1ccccc1OC)n2C	104.0	113.0
40	CCOc1ccc(/C=C/c2nc3ccccc3n2S(=O)(=O)c2cccc(Cl)c2)cc1	107.0	108.0
41	COc1ccc(C)cc1NC(=O)c1ccc2c(=O)n3c(nc2c1)CCCCC3	104.0	104.0
42	CC1=C(c2ccc(C)c(C)c2)S(=O)(=O)NC1=NCc1ccccc1Cl	107.0	117.0
43	O=C(Cc1csc2ccccc12)NCc1ccccc1F	103.0	108.0
44	CCOC(=O)CC(=O)CSc1nc2ccccc2c(=O)n1-c1ccc(C(=O)NCCOC)cc1	104.0	111.0
45	Cc1cccc(Cn2cc3c(=O)n(CC(=O)Nc4ccc(C)c(F)c4)nc-3c3cc(F)ccc32)c1	115.0	118.0
46	CCc1ccccc1N1CC(c2nc3ccccc3n2CCOc2ccc(Cl)c(C)c2)CC1=O (configuration not stated)	103.0	101.0
47	Cc1nn(C(=O)c2ccc(Br)cc2)c(C)c1Sc1ccccc1	101.0	104.0
48	Oc1c(C(c2ccc(Cl)cc2Cl)N2CCN(Cc3ccccc3)CC2)sc2nc(-c3ccco3)nn12 (configuration not stated)	107.0	107.0
49	COc1cc2c(=O)n(CCc3ccccc3)c(=O)n(CC(=O)Nc3ccccc3)c2cc1OC	105.0	105.0
50	COc1cccc(CNC(=O)CCc2nnc3n(CC(C)C)c(=O)c4ccccc4n23)c1	100.0	105.0

# Going on with the list.
no.	molecule	PV pol inh	PV pol inh intensity
51	COc1ccccc1CNC(=O)CC(c1ccc(OC)c(OC)c1)N1Cc2ccccc2C1=O (configuration not stated)	105.0	113.0
52	CCOC(=O)C1CCCN(S(=O)(=O)c2ccc(N3CCCCS3(=O)=O)cc2)C1 (configuration not stated)	106.0	114.0
53	Cc1ccc(-n2nc(C)c3c(C)cc(=O)n(CC(=O)Nc4cccc(C)c4C)c32)cc1	105.0	107.0
54	COC(=O)CC1Oc2ccccc2-n2cc(-c3ccc(Cl)cc3)nc21 (configuration not stated)	111.0	109.0
55	COc1cccc(CNC(=O)c2sc3ncccc3c2-n2c(C)ccc2C)c1OC	107.0	112.0
56	COc1cccc(C2CC(=O)Nc3c2c(=O)nc2c(C)cccn32)c1OC (configuration not stated)	108.0	103.0
57	CCCCN(CCCNC(=O)c1cc(Nc2ccc(OC)c(OC)c2)nc2ccccc12)c1ccccc1	111.0	112.0
58	CCOc1ccc(CC(=O)NCc2ccc3c(c2)CCN3C(C)=O)cc1OCC	103.0	103.0
59	Cc1ccc2nc3c(cc(C(=O)NCc4ccco4)c(=N)n3C(C)C)c(=O)n2c1	109.0	113.0
60	O=C(Nc1ccc(S(=O)(=O)N(Cc2ccccc2)c2ccccc2)cc1)c1ccc(F)cc1	106.0	100.0
61	CCCOC1(C(F)(F)F)NC(=O)N(c2ccc(Cl)cc2)C1=O (configuration not stated)	102.0	100.0
62	CC(C)(C)C(=O)Nc1cccc(-c2cn3cccnc3n2)c1	107.0	112.0
63	COc1ccc(NC(=O)C(=O)NCC2(c3ccccc3)CCCC2)c(OC)c1	105.0	105.0
64	CN(Cc1ccccc1)C(=O)c1cn(C)c2ccc(S(=O)(=O)N(C)C3CCCCC3)cc2c1=O	106.0	109.0
65	COc1ccc(CCC(=O)NC2CC(=O)N(c3ccc(OC)cc3)C2)cc1 (configuration not stated)	104.0	105.0
66	Cc1ccccc1C(=O)N(Cc1sccc1C)C1CCS(=O)(=O)C1 (configuration not stated)	118.0	113.0
67	Cc1nc2ccn(Cc3cccnc3)c(=O)c2cc1C(=O)Nc1ccc(F)cc1F	112.0	113.0
68	CC1=C(C(=O)Nc2cccnc2)C(c2ccccc2Cl)n2nc(-c3ccccc3)nc2N1 (configuration not stated)	107.0	109.0
69	CCCCCn1c(=O)[nH]c2cc(C(=O)NCc3ccc(C)cc3)ccc2c1=O	108.0	106.0
70	CCCOc1cccc(C2c3c(oc4ccc(F)cc4c3=O)C(=O)N2CCCN2CCOCC2)c1 (configuration not stated)	108.0	107.0
71	CCOc1ccc(/C=C/c2nc(C#N)c(NCc3ccccc3)o2)cc1	104.0	107.0
72	CSc1ccc(NC(=O)C2CCN(c3ncccn3)CC2)cc1	107.0	98.0
73	COc1ccc(CNc2nc3ccccc3c3nc(-c4ccccc4)nn23)cc1	98.0	105.0
74	COc1cccc(NC(=O)c2cnc(SCC(=O)N3CCOCC3)n(C)c2=O)c1	116.0	111.0
75	COc1ccc(OC)c(CNS(=O)(=O)c2ccc3c(c2)CCCN3C(C)=O)c1	103.0	109.0
76	CCn1cc(C(=O)NCCc2ccc(Cl)cc2)c(=O)c2cc(S(=O)(=O)N3CCc4ccccc4C3)ccc21	107.0	110.0
77	Cc1ccc(C)c(CSc2nc3ccncc3n2Cc2nc(-c3ccccc3Cl)oc2C)c1	106.0	109.0
78	CC(C)(C)OC(=O)N1CCC(c2c(C(=O)N3CCN(Cc4ccccc4)CC3)cnn2-c2ccc(Cl)cc2)CC1	98.0	107.0
79	Cc1ccc(-c2nnc(Nc3ccc(Br)cc3)c3ccccc23)cc1S(=O)(=O)NCc1nc2ccccc2[nH]1	107.0	110.0
80	O=c1cc(-c2ccc(F)cc2)nc(SCc2nc(-c3ccccc3Cl)no2)[nH]1	111.0	105.0
81	Cc1ccc(Cl)cc1N1CCN(C(=O)CN2C(=O)CSc3c2c(C)nn3-c2ccccc2)CC1	112.0	115.0
82	CCc1nn(CC(=O)NCCc2ccc(OC)cc2OC)c(=O)c2cc3sccc3n12	100.0	104.0
83	O=C(COc1ccccc1)N(Cc1cccnc1)c1nc2c(F)cccc2s1	110.0	115.0
84	CCc1ccc(NS(=O)(=O)c2cc(Br)cc3c2N(C(C)=O)CC3)cc1	104.0	108.0
85	CC1CCN(S(=O)(=O)c2ccc3c(c2)N(CC(=O)NC(C)c2ccccc2)C(=O)CS3)CC1 (configuration not stated)	105.0	108.0
86	Cc1cc(Cl)ccc1NC(=O)CCCn1nc(C)c2c(C)n(-c3ccccc3)nc2c1=O	110.0	97.0
87	CCc1ccc(CNc2ncnc3onc(-c4ccc(Cl)cc4)c23)cc1	102.0	101.0
88	COc1ccc(CNC(=O)CCc2c(C)nn(-c3ccc(N4CCOCC4)nn3)c2C)cc1	107.0	103.0
89	CC(=O)c1cccc(NC(=O)Cn2c(=O)oc3cc(S(=O)(=O)NCc4ccccc4)ccc32)c1	108.0	106.0
90	Cc1ccccc1C(=O)Nc1ccc(C(=O)OCc2cc(=O)n3nc(C4CC4)sc3n2)cc1	109.0	119.0
91	CCc1ccc(C(=O)NC(Cc2c[nH]c3ccccc23)C(=O)OCC(=O)c2ccc(Br)cc2)cc1 (configuration not stated)	101.0	97.0
92	Cc1nn(C(=O)c2ccccc2)c(C)c1Sc1ccc(Cl)cc1	101.0	104.0
93	CCN1CCOC(=O)C1CC(=O)Nc1cc(Cl)ccc1OC (configuration not stated)	104.0	105.0
94	COC(=O)c1ccc(C2c3c(oc4ccccc4c3=O)C(=O)N2c2nc(C)c(C(=O)OC)s2)cc1 (configuration not stated)	101.0	103.0
95	Cc1ccccc1CN1C(=O)c2ccccc2Sc2ccc(C(=O)OCc3ccco3)cc21	108.0	113.0
96	O=C(COCc1cc(-c2cccs2)on1)NCc1cccc(Cl)c1	111.0	101.0
97	CCCOc1ccc(C(=O)Nc2cccc(NC(=O)c3cccc(Cl)c3)c2)cc1	107.0	115.0
98	Cc1nc2scc(C)n2c(=O)c1S(=O)(=O)NCc1ccccc1Cl	100.0	94.0
99	CC1Cc2cc(S(=O)(=O)N3CCN(c4ccccc4F)CC3)ccc2N1C(=O)C1CCC1 (configuration not stated)	108.0	105.0
100	CCOc1ccc(CNC(=O)c2cc3c(s2)-c2ccccc2OC3)cc1	106.0	107.0

# Reformatted: 4 of the compounds above
80. O=c1cc(-c2ccc(F)cc2)nc(SCc2nc(-c3ccccc3Cl)no2)[nH]1
- PV pol inh = 111.0
- PV pol inh intensity = 105.0

81. Cc1ccc(Cl)cc1N1CCN(C(=O)CN2C(=O)CSc3c2c(C)nn3-c2ccccc2)CC1
- PV pol inh = 112.0
- PV pol inh intensity = 115.0

82. CCc1nn(CC(=O)NCCc2ccc(OC)cc2OC)c(=O)c2cc3sccc3n12
- PV pol inh = 100.0
- PV pol inh intensity = 104.0

83. O=C(COc1ccccc1)N(Cc1cccnc1)c1nc2c(F)cccc2s1
- PV pol inh = 110.0
- PV pol inh intensity = 115.0

# (further entries)
no.	molecule	PV pol inh	PV pol inh intensity
101	COc1ccc(NC(=O)CN(C)S(=O)(=O)c2ccc(C(=O)N3CCOCC3)s2)cc1	99.0	105.0
102	COC(=O)c1c(-c2cccs2)csc1NC(=O)c1ccc(Br)cc1	66.0*	66.0*
103	O=C(c1ccco1)N(Cc1cccnc1)c1nc2ccc(F)cc2s1	105.0	98.0
104	COC(=O)c1c(N)n(-c2cc(Cl)cc(Cl)c2)c2nc3ccccc3nc12	99.0	103.0
105	O=C(CSc1nnc(CNC(=O)c2c(F)cccc2Cl)o1)Nc1cccc(F)c1	109.0	106.0
106	COc1ccc(OC)c(Nc2nc(-c3ccc(C)cc3)nc3ccccc23)c1	105.0	93.0
107	COC(=O)c1c(NC(=O)c2nc(SCc3ccc(C)cc3)ncc2Cl)sc2c1CCCC2	104.0	106.0
108	O=C(CSc1nnc2scc(-c3ccccc3)n12)Nc1ccc(Cl)cc1	107.0	110.0
109	COc1cc(NC(=O)Cc2noc3ccccc23)cc(OC)c1OC	105.0	110.0
110	Cc1cccc(CSc2ncc(Cl)c(C(=O)Nc3sc4c(c3C#N)CCCC4)n2)c1	111.0	115.0

# Assay outcomes: PubChem BioAssay, ICCB-Longwood Screening Facility, Harvard Medical School
